LANA-H2B inh: blocks KSHV LANA binding to histone H2A/H2B. Q9QR71. cell-free LANA-H2A/H2B peptide, fluorescence polarization. inhibition, % (test concentration not listed). 0.6% of 320,000 active; in the data active means inhibition mostly above about 10%, no sharp cut-off; inactive means mostly below about 6.7%;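 further: stock transfer was 7.5 nL into about 10 µL; 0% = median of vehicle wells and 100% = median of positive control wells; one replicate is shown; the record names a cut of 25% in any replicate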
Vif A3G: inhibitors of Vif binding to APOBEC3G peptide, primary screen, biochemical, TR-FRET, GST-Vif 1-94, biotin-A3G peptide, dose response retest (AID 1117319); TR-FRET GST-Vif / biotin-A3G peptide binding; higher % means a stronger effect; test concentration not given here; strong numbers were not always called active; inhibition, %; hits with a dose series show IC50 in µM; 0.57% of 260,000 active;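 active means above the screen mean plus three standard deviations and confirmed in dose response; inconclusive means results disagree or hit not tested in dose response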;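 further: Vif residues 1-94 fused to GST binding biotinylated APOBEC3G peptide 110-148; 0% = full assay without inhibitor and 100% = GST in place of GST-Vif; retest series ran down from 100 µM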
Beta2AR agonist: activates human beta-2 adrenergic receptor causing internalization; Am2.2-beta2AR cells, FAP receptor internalization, flow cytometry; reference of the scale not given here; response, % (concentration not given with the values); 0.43% of 340,000 active; AID 504454;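 active means response above a set limit, near 3 SD of response in nonfluorescent compounds, cut at about 42% in these data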;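 further: stock transfer was 100 nL into about 11 µL; a reference agonist was the positive control; negative values mostly stem from fluorescent compounds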
Target sequence (P07550 whole entry, looked up): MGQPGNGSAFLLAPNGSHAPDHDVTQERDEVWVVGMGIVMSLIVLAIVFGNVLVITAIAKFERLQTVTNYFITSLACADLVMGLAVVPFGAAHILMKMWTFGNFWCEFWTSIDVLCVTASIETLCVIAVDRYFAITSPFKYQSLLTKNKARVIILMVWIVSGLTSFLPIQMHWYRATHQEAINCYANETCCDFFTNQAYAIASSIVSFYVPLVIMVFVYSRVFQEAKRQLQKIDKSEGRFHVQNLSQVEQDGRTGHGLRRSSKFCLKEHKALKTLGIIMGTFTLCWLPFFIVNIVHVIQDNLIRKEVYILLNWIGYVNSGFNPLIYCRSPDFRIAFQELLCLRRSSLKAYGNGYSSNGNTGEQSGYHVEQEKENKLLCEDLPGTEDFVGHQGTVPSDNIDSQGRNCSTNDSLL
RanGTP-Imp inh: inhibitors of RanGTP-importin-beta interaction, primary screen, biochemical, FRET, CFP-Ran, YFP-importin-beta, homogeneous. cell-free CFP-Ran/YFP-importin-beta FRET ratio. inhibition, % (test concentration not listed). 1.1% of 300,000 active. AID 2216;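 active means most replicates above 15%; inconclusive means exactly half above 15%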;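 further: 0% = DMSO wells and 100% = Ran loaded with GDP instead of GTP; wells of about 40 µL received 100 nL stock; the first replicate is given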
Calb FLC: affects C. albicans growth with fluconazole; C. albicans CaCi-2 (fluconazole-resistant clinical isolate) + fluconazole, Alamar Blue growth, 48 h; growth inhibition, % (concentration not given with the values); 0.57% of 300,000 active;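 active means most replicates above 75%; inconclusive means exactly half above 75%; inactive means most below 75%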;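 further: all wells also contain fluconazole at 8 µg/ml as a sub-toxic cotreatment; 0% = median of DMSO wells and 100% = median of geldanamycin control wells; wells of about 8 µL received 7.5 nL stock; the first replicate is given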
HNF4A DNA FP: change in binding of human HNF4 alpha to DNA; 0.3% of 360,000 active; activity change, % at 10 µM; AID 1224865; P41235; HNF4a-FITC DNA binding, fluorescence polarization, 1 h; in the data active means activity change above about 30%, passing the limit was not always enough;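 further: controls were the assay level and a saturating level of protein; the project sought stronger binding though the title names inhibitors; some compounds called inactive have numbers as strong as hits; positive values seem to mean higher polarization but the record does not say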
Target sequence (P41235 whole entry, looked up): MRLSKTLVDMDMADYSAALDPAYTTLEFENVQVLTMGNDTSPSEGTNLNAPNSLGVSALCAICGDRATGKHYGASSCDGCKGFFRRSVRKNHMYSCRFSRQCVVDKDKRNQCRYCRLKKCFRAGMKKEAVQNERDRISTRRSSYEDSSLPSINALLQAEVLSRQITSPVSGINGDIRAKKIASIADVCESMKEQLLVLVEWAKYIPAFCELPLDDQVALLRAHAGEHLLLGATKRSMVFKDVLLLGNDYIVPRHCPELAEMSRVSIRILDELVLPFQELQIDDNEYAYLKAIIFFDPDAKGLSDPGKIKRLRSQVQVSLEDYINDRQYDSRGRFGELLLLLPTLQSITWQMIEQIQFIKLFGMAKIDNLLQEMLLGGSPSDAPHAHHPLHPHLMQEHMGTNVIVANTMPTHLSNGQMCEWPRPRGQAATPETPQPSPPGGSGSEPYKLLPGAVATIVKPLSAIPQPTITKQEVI
ALR inh: blocks human ALR sulfhydryl oxidase activity | 3.8% of 290,000 active | purified ALR, DTT oxidation, H2O2 HRP-luminol luminescence | AID 485317 | inhibition, % (test concentration not listed) | P55789;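 active means mean and each replicate at 75% or more; inconclusive means only one of the two met; inactive means neither met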;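 further: stock transfer was 7.5 nL into about 7.5 µL; 0% = neutral wells and 100% = wells with inactivated enzyme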
An asterisk follows results filed as active; ? = inconclusive; nt = no result given; & = joins results of further samples.

compound	LANA-H2B inh	Beta2AR agonist	HNF4A DNA FP	ALR inh	RanGTP-Imp inh	Vif A3G	Calb FLC
Cc1nn(C)c(C)c1S(=O)(=O)N1CCC(CO)(CC2CCCCO2)CC1 (configuration not stated)	-0.6	1	-2.3	-5	-2.5	-7%	-4
COc1ccc(CC(=S)N2CCOCC2)cc1OC	5.2	3	-0.9	-6	3.1	-4%	-4
Cc1ccc(N(CC(=O)Nc2ccc3c(c2)OCCO3)S(=O)(=O)c2c(C)noc2C)cc1	-2.2	12	-2.3	-24	-2.8	22%	1
COc1cc(CC(=O)OCC(=O)N2CCCCC2C)cc(OC)c1OC (configuration not stated)	3.0	6	2.8	-3	11	nt	4
COCCCn1c(Cc2csc(Nc3cccc(Cl)c3)n2)nnc1SCC(=O)OC	-1.2	3	-3.7	60	3.2	-9%&19%	-5
Cc1cccc(-c2nc(NCCCN(C)C)c3ccccc3n2)c1	-0.7	2	4.5	-6	0.0	nt	2
CCOC(=O)c1c(Cc2cccc(Cl)c2)c[nH]c1C	-1.2	-2	-1.4	13	6.8	nt	-7
CCOCc1c(C(=O)OCC(=O)Nc2ccc(C)c(S(=O)(=O)N(C)C)c2)oc2ccccc12	1.6	-12	-4.1	4	3.3	?	-5
CCN(CC)c1nc2n(c(=O)n1)CCO2	-0.9	7	7.2	-5	3.1	?	2
CN(C(=O)Cn1nc(C(=O)O)c2ccccc2c1=O)C1CCCCC1	1.7	-8	1.4	0	nt	0%	nt
CCOC(=O)c1ccc(N=C2SC(C(=O)NC)CC(=O)N2Cc2ccc(F)cc2)cc1 (configuration not stated)	-0.3	-2	1.2	-9	-1.0	26%	-4
COc1ccc(NC(=O)COc2ccc(Br)cc2)c(OC)c1	1.8	13	5.8	nt	-1.1	nt	3
CC1=C(C(=O)OCc2ccccc2)C(c2cccs2)NC(=O)N1CCCC(=O)O (configuration not stated)	-7.4	-5	-8.5	nt	0.4	?	-11
COc1ccc(C(=O)NNC(=O)CSc2nnc(-c3cccnc3)o2)cc1	-0.8	-3	-2.4	nt	-1.7	nt	-15
O=C(NCC(=O)N1CCN(c2ncccn2)CC1)c1ccccc1F	-2.9	1	-1.8	6	nt	nt	nt

Two of the compounds above, with two lines to a compound:
Results follow in this order: LANA-H2B inh, Beta2AR agonist, HNF4A DNA FP, ALR inh, RanGTP-Imp inh, Vif A3G, Calb FLC
Cc1ccc(N(CC(=O)Nc2ccc3c(c2)OCCO3)S(=O)(=O)c2c(C)noc2C)cc1
 : -2.2, 12, -2.3, -24, -2.8, 22%, 1
COc1ccc(CC(=S)N2CCOCC2)cc1OC
 : 5.2, 3, -0.9, -6, 3.1, -4%, -4

The listing continues:
compound	LANA-H2B inh	Beta2AR agonist	HNF4A DNA FP	ALR inh	RanGTP-Imp inh	Vif A3G	Calb FLC
O=C(CNC(=O)C1CCCCC1)Nc1ccc(Cl)cc1	1.6	-10	-0.4	nt	-2.6	1%	-11
O=C(CSc1ccc(Cl)cc1)NNC(=O)c1ccco1	-4.7	12	5.2	1	-2.1	2%	-3
COc1ccc(N2CC(C)Cn3c2nc2c3c(=O)n(CCN3CCOCC3)c(=O)n2C)cc1 (configuration not stated)	1.8	-7	0.6	2	-4.6	1%	-1
COc1ccc(N(CC(=O)N2CCc3ccccc3C2)S(C)(=O)=O)cc1Cl	3.5	2	-2.6	-5	11	nt	-5
COc1ccc(CNC(=O)c2cc(=O)c3ccccc3o2)cc1	2.2	0	-0.4	1	-1.7	4%	-3
NC(=O)N/N=C/C=C/c1ccc(F)cc1	-1.6	-3	-0.1	-7	8.2	-10%	10
CCOC(=O)[C@H]1[C@H]2COc3ccc(C)cc3[C@@H]2N2C(=O)c3cc(F)c(F)cc3NC(=O)[C@@]12C	-0.1	13	1.5	nt	nt	nt	nt
FC(F)(F)c1ccc(NC(=S)NC2CCCCC2)cc1	-2.9	1	1.3	3	3.6	-8%	-6
CCOc1cc2c(cc1OCC)C(C(=O)O)C(c1ccc(OC)c(O)c1)N(C)C2=O (configuration not stated)	-1.0	4	-4.1	47	0.9	-11%	-2
COc1ccc2c(c1)sc(=N)n2C	-1.0	-3	4.0	-63	-2.6	4%	-9
C=CCNC(=O)c1oc2ccc(S(=O)(=O)N(CC)CC)cc2c1C	-11	6	1.0	0	1.9	4%	-36
CCn1cc(-c2n[nH]c(=S)n2-c2ccc(C)cc2Br)c(=O)c2ccc(C)nc21	1.6	-6	-7.9	55	5.0	-4%	17
O=C(O)c1ccccc1NS(=O)(=O)c1cccc(-n2sc3ccccc3c2=O)c1	3.3	-4	-1.7	98*	4.1	nt	-3
C=C1CCN([C@@H](Cc2ccccc2)C(=O)O)S(=O)(=O)c2ccccc21	2.4	4	1.2	-7	6.6	nt	1
CCN(CC)C(=O)C1CCN(S(=O)(=O)c2ccc3c(c2)CCCN3C(=O)C2CCC2)CC1	-4.8	-9	1.6	-1	-1.1	nt	20
Nc1nc2nc(-c3ccc(OCc4ccccc4)cc3)cc(C(F)(F)F)n2n1	-0.7	1	0.4	-1	34*	0%	-14
Nc1c(C(=O)c2ccccc2)oc2ccccc12	-13	-3	1.0	14	-1.4	22%	0
N#Cc1ccc(CN2CCN(C(=O)Cn3nc(C(N)=O)c4ccccc4c3=O)CC2)cc1	2.8	1	1.0	-11	1.2	4%	-6
CCOC(=O)C1=C(CC)OC(N)=C(C#N)C1c1ccc(NC(C)=O)cc1 (configuration not stated)	3.0	-21	-1.2	-4	?	3%	-10
O=C(CSc1nnc(Cc2cccs2)n1C1CCCCC1)N1CCN(C(=O)c2ccco2)CC1	0.6	-10	-2.1	33	-3.1	-1%	-4
CSc1cccc(NC(=S)N2CCC(N(C)C3CCCCC3)CC2)c1	4.8	3	-4.7	-4	-2.4	nt	0
N#Cc1ccc(S(=O)(=O)Nc2ccc3ccccc3n2)cc1	-2.3	-6	-3.0	1	1.0	-1%	-19
CCC(C(=O)Nc1ccccc1C(=O)N1CCCC1)N1C(=O)c2ccccc2C1=O (configuration not stated)	2.2	-3	-5.8	-2	6.4	2%	0
COc1ccc(CCC(=O)N2CCCC(Nc3ccc(C)c(C)c3)C2)cc1OC (configuration not stated)	-0.9	-9	-3.3	99*	4.8	nt	16
CCCNC(=O)C1CN(S(=O)(=O)c2ccc(C)cc2)c2ccccc2O1 (configuration not stated)	-4.2	-12	-3.2	-1	-3.1	7%	-21
COc1ccc2c(c1OC)C(=O)OC2c1c(O)nc(SC)n(-c2ccccc2)c1=O (configuration not stated)	-2.8	-2	3.8	7	-1.6	1%	-2
Cc1nc(CCNC(=O)CC2C(=O)NCCN2CC(C)(C)C)nc2c1CCC2 (configuration not stated)	2.9	2	0.6	nt	4.0	nt	1
CC(C)c1ccc(NC(=O)C(c2ccccc2)N2CCN(C=O)CC2)cc1 (configuration not stated)	2.0	7	2.8	-9	-2.5	-1%	-2
CCOc1ccc(S(=O)(=O)NCCCl)cc1	-2.5	1	6.0	40	2.3	nt	?
O=C(NCc1cc([N+](=O)[O-])ccc1O)c1cccnc1Sc1ccccc1	-1.0	5	-2.2	13	-1.7	nt	48
CCC(C(=O)Nc1ccc(S(=O)(=O)Nc2ncccn2)cc1)c1ccccc1 (configuration not stated)	-0.8	0	-1.2	nt	-3.2	nt	-10
O=C(NC1CCCCC1)c1ccccc1NC(=S)NC(=O)C1CC1	-2.5	-3	0.5	-20	-2.6	-12%	0
CCN(CC)CCCNC(=O)c1cn(-c2cccc(OC)c2)c(=O)c2ccccc12	-0.6	-6	5.3	0	0.2	8%	-1
COc1cc(C(=O)N2CCC(C(N)=O)CC2)ccc1OCc1c(C)noc1C	-0.9	1	-4.9	-9	nt	-1%	nt
COc1ccc(OC)c(CC(NC(C)=O)C(=O)NC2CCN(S(=O)(=O)c3ccc(NC(C)=O)cc3)CC2)c1 (configuration not stated)	0.6	-5	3.4	nt	-1.0	-9%	11
CCOC(=O)C(NCc1ccco1)(NC(=O)c1ccc(OC)cc1)C(F)(F)F (configuration not stated)	-4.7	0	1.8	-10	0.7	2%	3
Oc1ccc(C(=Nc2ccccc2)c2ccccc2)c(O)c1	nt	2	-0.6	nt	nt	-7%	nt
O=C(CN1CCCc2ccccc21)NCCc1ccc(F)cc1	-2.9	9	-4.4	108*	1.3	nt	14
COc1ccc(C(=O)c2ccc(N3CCN(C(=O)c4ccc(F)cc4)CC3)c(F)c2)cc1Br	-12	4	1.9	-6	-1.1	2%&-34%	-3
O=C(O)C[C@@H](CNC(=O)COc1ccc2ccc(=O)oc2c1)c1ccc(Cl)cc1	0.4	-9	2.8	-2	3.7	-1%	-8
Cc1ccccc1NC(=O)N1CCNC(=O)C1CC(=O)Nc1cc(Cl)ccc1Cl (configuration not stated)	-6.7	2	0.8	-2	-0.5	nt	-1
O=C(Nc1cccc([N+](=O)[O-])c1)c1ccc(CN2CCOCC2)cc1	-5.7	5	1.5	-16	-3.3	2%	2
CCn1c(SCC(=O)NNC(=O)c2ccccc2)nnc1-c1ccco1	6.0	5	-0.1	15	3.1	-2%	0
C=CCOc1ccc(C(=O)Nc2ccc(OCC)cc2)cc1	-0.4	9	-0.7	-31	3.2	0%	-13
O=C(CCNC(=O)c1ccc(Cl)cc1)NCc1ccco1	-5.1	-3	5.0	-9	nt	6%	nt
CCn1c(SCC(=O)NC2CCCCC2C)nnc1-c1ccc(OC)cc1 (configuration not stated)	6.3	-12	4.4	-3	-6.5	13%	-13
O=C(Nc1ccc(Oc2cccnc2)cc1)c1ccccc1F	-0.8	-10	-1.2	-15	0.1	-2%	43
CCOC(=O)C1CCN(S(=O)(=O)c2ccc3[nH]c(=O)ccc3c2)CC1	-2.8	-4	2.7	-13	3.8	nt	3
Cn1nnnc1NCc1ccccc1F	2.6	-3	-0.2	-9	2.4	nt	-2
Cn1cnc([N+](=O)[O-])c1S(=O)(=O)c1cccc(Cl)c1	-3.5	14	2.0	42	-2.8	nt	6
Cc1ccsc1/C=C1\CCC(C2CCCC2)C1=O (configuration not stated)	-0.7	-1	1.5	nt	1.8	-1%	-4
CCC(=O)c1ccc(OCC(=O)NCCCN2CCOCC2)cc1	nt	-4	-1.6	nt	nt	2%	nt
COc1ccc(C(C)NC(=O)c2ccccc2)cc1 (configuration not stated)	-2.7	13	2.5	-1	1.1	-4%	13
O=C(c1ccc[nH]c1=S)N1CCN(S(=O)(=O)c2ccc(Br)cc2Cl)CC1	2.0	-8	0.6	-3	-2.4	nt	-2

Source: PubChem
